GALR2 ag = activates the human galanin receptor 2; activation, %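 (tested at 5 µM)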; GALR2-expressing cells, agonist activation read-out; O43603; 140,000 compounds, 0.48% hits;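 active = above mean plus 3 SD of all compounds, about 5% in these data, not always enough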;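 also: 0% = vehicle buffer wells and 100% = reference agonist at full effect; tested in CHO reporter cells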
Target sequence (O43603 whole entry, looked up): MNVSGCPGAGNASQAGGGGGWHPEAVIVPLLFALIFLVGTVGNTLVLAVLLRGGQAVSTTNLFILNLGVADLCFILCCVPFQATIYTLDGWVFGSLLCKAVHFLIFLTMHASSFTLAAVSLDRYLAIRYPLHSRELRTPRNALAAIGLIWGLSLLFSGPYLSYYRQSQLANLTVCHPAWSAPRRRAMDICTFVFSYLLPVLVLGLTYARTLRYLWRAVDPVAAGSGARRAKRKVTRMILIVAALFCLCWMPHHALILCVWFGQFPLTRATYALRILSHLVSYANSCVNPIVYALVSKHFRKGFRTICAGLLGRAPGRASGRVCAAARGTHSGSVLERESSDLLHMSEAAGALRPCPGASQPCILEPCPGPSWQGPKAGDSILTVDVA
HSV augment = increases HSV replication in cells. HSV replication augmentation in cells, fold increase. maximum fold increase. 220,000 compounds, 0.005% hits. AID 1956;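 active = peak rise of 1.5-fold or more in the series; tested in PC3 cells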;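 also: first round at 10 µM; read as green reporter fluorescence; hits show the peak of a series up to 25 µM; 1 = signal of infected wells without compound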
INS promoter inh = TRM-6 insulin promoter activity inhibition. TRM-6 cells (human fetal islet line), insulin promoter-eGFP reporter, imaging; reporter expression induced with tamoxifen. inhibition, % at 2 µM. 130,000 compounds, 0.9% hits. AID 1273;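 active = inhibition above the mean plus 3 SD, with well images judged a real hit on visual review, cut at about 60% in these data, passing the limit was not always enough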
PKD1 inh = inhibitors of human PKD1 kinase; Q15139; PKD1 kinase fluorescence polarization assay; inhibition, %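 (about 10 µM by stock and volumes)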; 200,000 compounds, 0.056% hits;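 active = inhibition of 50% or more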;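 also: controls were vehicle for no effect and a reference inhibitor for full effect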
RGS16-Gao HTS = modulates binding between human RGS16 and Galphao; bead-based flow cytometry RGS16-Galphao binding, fluorescence; actives lie on both sides; binding response (% of control), % at 10 µM; 220,000 compounds, 0.38% hits; AID 1441;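 active = below 25% or above 175%, edge rows of some plates excepted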;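 also: Galphao activated by GDP with aluminum fluoride before binding; 100% = wells without compound and 0% = beads without RGS; some results beyond the cut were filed as inactive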
Target sequence (O15492 whole entry, looked up): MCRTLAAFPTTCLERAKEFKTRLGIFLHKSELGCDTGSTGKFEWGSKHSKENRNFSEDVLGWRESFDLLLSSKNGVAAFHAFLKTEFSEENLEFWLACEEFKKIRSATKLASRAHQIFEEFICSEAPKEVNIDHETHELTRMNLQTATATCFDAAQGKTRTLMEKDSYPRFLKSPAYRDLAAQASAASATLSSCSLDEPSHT
Target sequence (P09471 whole entry, looked up): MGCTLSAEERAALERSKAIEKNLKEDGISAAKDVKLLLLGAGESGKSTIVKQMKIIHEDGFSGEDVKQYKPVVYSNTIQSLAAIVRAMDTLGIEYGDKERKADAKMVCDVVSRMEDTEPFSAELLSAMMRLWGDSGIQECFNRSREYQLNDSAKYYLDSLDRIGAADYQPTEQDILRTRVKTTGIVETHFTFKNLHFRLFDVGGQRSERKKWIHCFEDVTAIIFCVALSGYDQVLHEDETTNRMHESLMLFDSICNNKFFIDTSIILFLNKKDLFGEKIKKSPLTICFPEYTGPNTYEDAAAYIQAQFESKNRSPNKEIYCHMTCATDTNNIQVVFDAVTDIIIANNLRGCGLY
INS promoter inh cell count = also measured in INS promoter inh; calls as there; normalized cell count, %; measured here: cell count, toxicity; reference of the scale not given here;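 cells exposed to compound for 48 h; stained nuclei by imaging scaled within each plate; lower means fewer cells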
HSV augment primary fold = also measured in HSV augment; calls as there; fold increase; compound at 10 µM; measured here: primary screen fold increase 10 uM; tested in PC3 cells;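 GFP signal in the first replicate; 1 = infected wells without compound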
* = called active by the depositor; i = inactive; / = not tested or not shown.

SMILES	GALR2 ag	HSV augment	HSV augment primary fold	INS promoter inh	INS promoter inh cell count	PKD1 inh	RGS16-Gao HTS
CCCCCn1c(N)c(-c2nc3ccccc3o2)c2c([N+](=O)[O-])nn(C)c(=O)c21	-1.6	i	1.14	/	/	-7.2	127.2
COc1ccc(-c2nc3c(c(=O)[nH]c(=O)n3Cc3ccccc3)n2C)cc1	-1.3	i	0.76	21.4	92.7	-1.6	95.4
O=C(Nc1ccc(-c2csc(Nc3ccc(Cl)cc3)n2)cc1)c1cccc(C(F)(F)F)c1	/	i	0.65	/	/	/	100.5
COc1ccc(S(=O)(=O)N(C)CC(=O)NC2CC2)cc1	-2.0	i	1.11	-32.3	137.6	-2.4	107.6
NC(=O)c1oc2ccc(Cl)cc2c1NC(=O)CN1CCOCC1	-2.0	i	0.92	-13.2	135.9	-4.6	103.7
CC1C/C(=N\NC(=S)NC(C)C)CC(C)(C)C1 (configuration not stated)	-1.9	i	1.08	23.3	75.8	-7.3	102.2
COC(=O)N/N=C\c1c(C)nn(-c2ccccc2)c1Cl	-0.8	i	0.98	/	/	-8.0	97.8
O=C(CSc1ncccn1)NCc1ccc(Cl)cc1	/	i	1.13	-10.5	112.7	-0.3	103.4
CC(C(=O)N1CCN(Cc2ccccc2)CC1)c1ccc([N+](=O)[O-])cc1 (configuration not stated)	/	i	1	/	/	/	112.6
Cc1ccsc1/C=N/n1c(=S)[nH]nc(C)c1=O	-0.1	i	0.96	-34.5	120.1	-10.6	107.9
COC(=O)c1cc2occc2n1Cc1ccc(Cl)cc1	0.4	i	0.84	2.8	133.6	15.1	106.7
C1CCCCCC(=NNc2nn[nH]n2)CCCCC1	/	i	1.01	/	/	/	104.5
O=C(C1CCN(S(=O)(=O)c2cccc([N+](=O)[O-])c2)CC1)N1CCOCC1	/	i	0.89	/	/	-5.9	100.8
COCC(C)NC(=O)c1cc(-c2ccc(O)cc2)on1 (configuration not stated)	-2.1	i	0.94	/	/	0.4	104.1
CCOc1ccc(NC(=O)c2ccc(NC(=O)COC(=O)Cc3ccc(OC)cc3)cc2)cc1	/	i	0.77	5.0	85.8	-0.1	76.8
O=C1CC(c2ccc(F)cc2)Cc2nc(N3CCN(c4ccccc4)CC3)ncc21 (configuration not stated)	-2.1	i	0.83	-12.5	90.2	-2.7	100.2
O=C(CCCCn1c(=O)c2ccccc2n(Cc2ccc(F)cc2Cl)c1=O)NCc1ccco1	2.0	i	0.84	-16.2	91.5	-3.6	107.8
N/C(=N\OC(=O)c1cccc2ccccc12)c1cccc([N+](=O)[O-])c1	-2.5	i	0.85	-6.5	95.9	14.6	100.7
CCCCCOC(=O)CSc1nnc(-c2cc(OC)c(OC)c(OC)c2)o1	-1.7	i	1.21	/	/	11.2	94.8
O=C(NC1CCCCC1)N(Cc1nc2ccccc2c(=O)[nH]1)C1CCCCC1	0.1	i	0.95	/	/	-10.9	91.5
CC(C)(C)NCC(=O)N/N=C/c1ccc(OCc2ccccc2)cc1	/	i	0.86	/	/	-7.4	112.7
O=C(NN=C1CCCC1)c1[nH]c2ccc(Cl)cc2c1-c1ccccc1	/	i	0.67	/	/	/	91.7
Nc1nc(C2CCOCC2)cs1	/	i	0.95	/	/	/	107.4
Cc1ccc(N=Nc2ccc(O)c3ncccc23)cc1	0.3	i	0.53	-123.1	41.4	-12.9	10.1*
O=C(Nc1ccc(S(=O)(=O)N2CCCCCC2)cc1)c1ccc(Br)o1	-0.7	i	0.81	9.4	100.0	-13.2	99.6
O=c1[nH]cnc2nc(-c3ccccc3)c(-c3ccccc3)nc12	-0.5	i	0.96	-2.9	65.7	4.0	97.6
O=C(NCC1CCCO1)C(c1cccs1)N(C(=O)c1ccc(CN2CCOCC2)o1)c1ccc(Cl)cc1 (configuration not stated)	-2.0	i	0.82	-14.7	133.5	1.9	102.1
COCCNC(=O)C(c1ccc(C)o1)N(C(=O)c1snc(C(N)=O)c1N)c1ccc(C)c(C)c1 (configuration not stated)	-0.6	i	0.97	7.1	125.2	-8.6	102.4
Cc1cccc(NC(=S)N(Cc2cccs2)Cc2cc3cc(C)ccc3[nH]c2=O)c1	-3.2	/	/	7.7	87.7	3.7	39.3
O=C(c1ccccc1)c1ccc(OCCCN2CCCCC2)cc1	-2.2	i	0.91	-364.3	59.4	-13.9	102.9
O=c1[nH]c(SCc2nc3ccccc3c(=O)n2-c2ccccc2)nc2ccccc12	0.4	i	1.03	/	/	6.4	106.5
COc1ccc(CNS(=O)(=O)NCc2ccc(OC)c(OC)c2)cc1OC	/	/	/	15.4	109.2	1.4	97.0
COc1ccccc1-n1c(C)nnc1SCC(N)=O	-1.6	i	0.99	-33.3	208.5	-3.5	96.3
CNc1sc(C(=O)c2ccc(F)cc2)c(N)c1-c1nc2ccccc2s1	-3.4	i	0.97	13.0	71.5	-8.1	96.9
O=C(Nc1nc2ccc(Cl)cc2s1)c1ccc(Br)o1	2.0	i	0.99	51.3	83.3	-4.7	101.1
CCN(C(=S)Nc1ccc(OC(F)F)cc1)C1CCCCC1	/	i	1.02	-21.4	95.6	-8.9	101.0
O=C(O)c1cc(Cl)ccc1NC(=O)C1CCCO1 (configuration not stated)	0.5	i	0.95	27.8	40.3	-0.1	102.0
O=C(O)C1CC=C(Cl)CC1C(=O)NCc1ccccc1 (configuration not stated)	-4.0	i	0.74	51.5	65.5	-10.6	104.8
Cc1ccccc1NC(=O)c1ccc(CSc2ncccn2)cc1	-1.6	i	1.18	19.4	101.4	-3.7	99.2
O=C(Nc1ccc(N2CCOCC2)cc1N1CCOCC1)c1ccco1	-2.1	i	0.91	-40.0	65.4	-2.9	93.6
CC(=O)Nc1ccc(NC(=O)CCC(=O)NCCO)cc1	-1.5	i	1.2	0.0	106.1	-10.0	111.8
COc1ccc(C(=O)N2c3ccccc3C(=O)OC2c2ccc3c(c2)OCO3)cc1 (configuration not stated)	0.1	i	0.92	0.0	99.7	-3.1	295.5
O=C(c1cc(N2C(=O)C3C4CCC(C4)C3C2=O)ccc1Cl)N1CCN(c2ccccc2)CC1 (configuration not stated)	-0.1	i	0.98	24.3	115.2	-11.9	91.0
Cc1ccnc(N2CCC(C(=O)Nc3ccc4c(c3)OCCO4)CC2)n1	/	i	0.71	/	/	-1.6	103.2
Cn1c(=O)c2cc(S(=O)(=O)NCCC(=O)NCCC3=CCCCC3)ccc2n(C)c1=O	-1.8	i	0.95	45.5	96.4	5.4	110.2
CC[C@@H](C)[C@@H](C(=O)N1CCN(C(=O)OC(C)(C)C)CC1)n1cc(CCCN=C(NC(=O)OC(C)(C)C)NC(=O)OC(C)(C)C)nn1	/	i	1.11	/	/	0.4	102.0
CC1(C)Cc2c(c(=S)nc(-c3ccccc3)n2CCN2CCOCC2)CO1	-3.2	i	0.96	59.1	94.0	1.9	100.2
O=S(=O)(c1ccc2ccccc2c1)N1CCN(S(=O)(=O)N2CCCCC2)CC1	-0.5	i	0.95	36.7	39.6	0.8	102.3
COc1ccc(CCNC2=C(Cl)C(=O)N(CCc3ccc(OC)c(OC)c3)C2=O)cc1OC	0.1	i	0.85	46.7	146.3	2.2	94.0
COc1ccccc1-n1cnc2cc(NC(=O)c3ccco3)ccc21	-1.5	i	0.68	-76.9	104.4	-2.7	90.0
COc1cc(C2Nc3ccc4ncccc4c3C3=C2C(=O)CCC3)cc(OC)c1O (configuration not stated)	-1.3	i	0.93	61.5	92.1	-6.1	98.4
CN(C)CCNCc1ccccc1OC1CCCC1	-1.1	i	0.98	-10.0	132.4	-5.6	104.0
CC(Cc1ccccc1)C(=O)NCc1ccccn1 (configuration not stated)	-1.5	i	0.87	5.0	111.2	-8.0	104.7
CC(=O)Cc1nsc(NC(=O)c2ccc(-c3ccccc3Cl)o2)n1	-3.0	i	1.07	4.2	141.1	1.9	58.3
CCCCNC(=S)N1CCN(c2nc3ccccc3s2)CC1	/	i	0.94	/	/	-4.7	104.5
CCN(CC)C(=O)C(=O)N/N=C/c1cccc(Br)c1	-2.5	i	1.02	41.7	100.2	4.5	93.5
COc1cccc(OC)c1C(=O)Nc1cccc(C(C)=O)c1	-1.7	i	0.79	-81.2	118.7	-7.0	/
CC12CCC(C(=O)N3CCN(C(c4ccccc4)c4ccccc4)CC3)(OC1=O)C2(C)C (configuration not stated)	-1.7	i	0.79	14.3	100.6	3.5	94.5
Cc1cccc(NC(=O)CCC(=O)Nc2nnc(C(F)(F)F)s2)c1	/	i	1.19	/	/	/	99.1
CCCCCn1c(Sc2ncccn2)nc2c1c(=O)[nH]c(=O)n2C	-0.2	i	0.98	44.4	118.5	-0.5	109.4

Continuation.
SMILES	GALR2 ag	HSV augment	HSV augment primary fold	INS promoter inh	INS promoter inh cell count	PKD1 inh	RGS16-Gao HTS
CSc1nsc(SC)c1C(=O)Nc1ccc(C)cc1	0.0	i	0.89	-5.1	118.1	-6.7	110.5
COC(=O)/C=C/C(=O)Nc1cccc(C(F)(F)F)c1	0.0	i	0.74	36.7	94.4	6.4	69.5
CCOC(=O)CNC(=S)n1ncnc1N	/	i	1	26.7	91.4	-5.2	91.4
C/C=C/c1ccc(OCC(=O)Nc2cc(OC)c(OC)c(OC)c2)c(OC)c1	/	i	0.98	/	/	-1.1	100.2
COc1ccc(N2CCN(C(CNC(=O)C(C)(C)C)c3cccnc3)CC2)cc1 (configuration not stated)	/	i	1.15	-5.9	134.1	-1.2	103.3
COc1cnn(C(C)(C)C)c(=O)c1Cl	0.1	i	0.96	25.8	119.7	-7.3	103.9
Cc1nc(SCC#N)c2c(C)c(C)sc2n1	-1.3	i	0.79	-47.2	120.6	-7.2	118.2
NNC(=O)c1ccc(COc2ccc3ccccc3c2)o1	/	i	1.1	/	/	/	109.5

Compounds listed so far that have a Cl atom:
SMILES	GALR2 ag	HSV augment	HSV augment primary fold	INS promoter inh	INS promoter inh cell count	PKD1 inh	RGS16-Gao HTS
O=C(Nc1ccc(-c2csc(Nc3ccc(Cl)cc3)n2)cc1)c1cccc(C(F)(F)F)c1	/	i	0.65	/	/	/	100.5
NC(=O)c1oc2ccc(Cl)cc2c1NC(=O)CN1CCOCC1	-2.0	i	0.92	-13.2	135.9	-4.6	103.7
COC(=O)N/N=C\c1c(C)nn(-c2ccccc2)c1Cl	-0.8	i	0.98	/	/	-8.0	97.8
O=C(CSc1ncccn1)NCc1ccc(Cl)cc1	/	i	1.13	-10.5	112.7	-0.3	103.4
COC(=O)c1cc2occc2n1Cc1ccc(Cl)cc1	0.4	i	0.84	2.8	133.6	15.1	106.7
O=C(CCCCn1c(=O)c2ccccc2n(Cc2ccc(F)cc2Cl)c1=O)NCc1ccco1	2.0	i	0.84	-16.2	91.5	-3.6	107.8
O=C(NN=C1CCCC1)c1[nH]c2ccc(Cl)cc2c1-c1ccccc1	/	i	0.67	/	/	/	91.7
O=C(NCC1CCCO1)C(c1cccs1)N(C(=O)c1ccc(CN2CCOCC2)o1)c1ccc(Cl)cc1 (configuration not stated)	-2.0	i	0.82	-14.7	133.5	1.9	102.1
O=C(Nc1nc2ccc(Cl)cc2s1)c1ccc(Br)o1	2.0	i	0.99	51.3	83.3	-4.7	101.1
O=C(O)c1cc(Cl)ccc1NC(=O)C1CCCO1 (configuration not stated)	0.5	i	0.95	27.8	40.3	-0.1	102.0
O=C(O)C1CC=C(Cl)CC1C(=O)NCc1ccccc1 (configuration not stated)	-4.0	i	0.74	51.5	65.5	-10.6	104.8
O=C(c1cc(N2C(=O)C3C4CCC(C4)C3C2=O)ccc1Cl)N1CCN(c2ccccc2)CC1 (configuration not stated)	-0.1	i	0.98	24.3	115.2	-11.9	91.0
COc1ccc(CCNC2=C(Cl)C(=O)N(CCc3ccc(OC)c(OC)c3)C2=O)cc1OC	0.1	i	0.85	46.7	146.3	2.2	94.0
CC(=O)Cc1nsc(NC(=O)c2ccc(-c3ccccc3Cl)o2)n1	-3.0	i	1.07	4.2	141.1	1.9	58.3
COc1cnn(C(C)(C)C)c(=O)c1Cl	0.1	i	0.96	25.8	119.7	-7.3	103.9
